Source: PubChem BioAssay
VDR inh: inhibitors of human vitamin D receptor; P11473; VDR-SRC2-3 peptide fluorescence polarization, 2 h; AID 504847; Potency, µM, for inactives: max response, negative = inhibition, hits mostly inhibitors; 400,000 compounds, 0.93% hits; active = well fitted inhibition curve with a large enough effect; inconclusive = small, poorly fitted or top-dose-only effect, or another doubt; inactive = no such curve, though single readings can be large or run the other way; also: series mostly up to about 120 µM
Target sequence (P11473 whole entry, looked up): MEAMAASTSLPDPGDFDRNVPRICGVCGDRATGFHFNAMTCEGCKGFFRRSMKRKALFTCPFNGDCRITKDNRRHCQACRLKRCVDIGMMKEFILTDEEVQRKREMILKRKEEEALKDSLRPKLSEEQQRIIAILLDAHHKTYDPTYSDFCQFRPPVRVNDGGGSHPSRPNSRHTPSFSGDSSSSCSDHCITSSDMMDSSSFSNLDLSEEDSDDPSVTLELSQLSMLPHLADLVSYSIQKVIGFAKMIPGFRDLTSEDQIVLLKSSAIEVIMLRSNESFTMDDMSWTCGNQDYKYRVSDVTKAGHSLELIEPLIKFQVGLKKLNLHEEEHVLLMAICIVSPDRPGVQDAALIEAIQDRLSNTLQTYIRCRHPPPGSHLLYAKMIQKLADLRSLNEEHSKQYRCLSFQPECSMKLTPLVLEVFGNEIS
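The screen uses fluorescence polarization to detect compounds that interfere with recruitment of the SRC2-3 coactivator peptide to VDR; plates are read after 2 h at room temperature.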
* marks the source's active call; other numbers are inactive results; ? = inconclusive; & = joins results of further samples; [ ] = remark or other dose. % is scaled to controls: 0 for no effect and ±100 for the full control effect; potency is read from the fitted curve at half-maximal effect. Not all compounds are listed, so the mix of outcomes need not match the whole.

VDR inh	smiles
2.3%	CC(=O)[C@@]1(O)CCC2C3CC[C@H]4C[C@@H](O)CC[C@]4(C)C3CC[C@@]21C (some centres undefined)
-1.9%	Cn1c(CNc2cccc(Cl)c2)nnc1SCC#N
-1.0%	CCOc1ccc(S(=O)(=O)N2CCC(N3CCN(Cc4ccc(C)cc4)C(=O)C3=O)CC2)cc1
?	Cc1ccc([C@@H]2CC=C(C(=O)O)[C@H](c3cccc(Cl)c3)N2S(=O)(=O)c2ccccc2C)cc1
0.9%	O=C1CC(C(=O)NCCc2ccccc2)SC(=Nc2ccccc2)N1 (centres undefined)
1.7%	CN(C)c1ccc(-c2nccc(NCc3ccccc3)n2)cc1
-5.4%&-4.7%	COc1ccccc1Nc1nn2c(=O)c3ccc(C(=O)N4CCCC(C)C4)cc3nc2s1 (centres undefined)
-27.7%	CCC(CO)Nc1ncnc2c1cnn2-c1ccc(OC)cc1 (centres undefined)
-7.7%	COC(=O)CNC(=O)C1Cc2ccccc2CN1S(=O)(=O)c1ccc(F)cc1 (centres undefined)
-12.9%	COc1ccc(-c2cc(C(=O)N3CCCCC3C)no2)cc1OC (centres undefined)
-21.9%	Cc1ccccc1C(=O)NCC(c1ccco1)N1CCc2ccccc21 (centres undefined)
-9.7%	Cc1cc(C(=O)CSc2nnc(-c3ccc4c(c3)OCO4)o2)c(C)n1-c1ccc(F)cc1
-5.8%	Cc1ccc(C(C(=O)NC2CCCCC2)N2CCOCC2)cc1 (centres undefined)
-4.2%	NC(=O)c1c(NC(=O)c2cccs2)sc2c1CCCCCC2
4.4%	Cc1ccc(C)c(NC(=O)N2CC=C(c3c[nH]c4ccccc34)CC2)c1

More entries:
VDR inh	smiles
11.9%	COc1ccc(-n2c(C)cc(=O)[nH]c2=O)cc1
-7.6%	CC(NC(=O)COC(=O)Cc1ccccc1[N+](=O)[O-])c1ccccc1 (centres undefined)
-11.4%	CCN1CCN(CC(=O)N/N=C/c2ccc(F)cc2F)CC1
3.6%	Cc1ccc(-n2c(Cn3nc(C(F)F)cc3C(F)F)n[nH]c2=S)cc1
-23.1%	COc1ccc2oc(=N)c(C(=O)Nc3ccccc3Cl)cc2c1
-9.6%	O=[N+]([O-])c1c(NCCCO)cc(N2CCCCCC2)c2nonc12
3.9%	CC(C)c1cccc(C(C)C)c1NC(=O)CCN1C(=O)NC2(CCCC2)C1=O
-3.5%	Cc1cc(-c2nnc(SCC(=O)Nc3cccc(C)c3C)n2N)n[nH]1
-12.3%	Cc1ccc(C(=O)N2CCN(S(=O)(=O)c3ccc(Br)cc3)CC2)o1
-3.2%	CN(CC(=O)Nc1ccc(C(N)=O)cc1)CC(=O)Nc1ccccc1Br
-16.0%	O=C(N=C1SC2CS(=O)(=O)CC2N1c1ccccc1)C1CC1 (centres undefined)
15.2%	CCCN1CCc2nc(N3CCN(CC)CC3)ncc2C1
-7.4%	C=C(C)C(=O)Nc1cccc(C2=NOC3(C2)C[C@@H](C(N)=O)N(C(=O)c2ccc(Cl)cc2)C3)c1 (some centres undefined)
-20.9%	Cc1ccc(C(=O)NCC(=O)OCC(=O)N(CC(C)C)c2c(N)n(Cc3ccccc3)c(=O)[nH]c2=O)cc1C
-22.7%	COCCn1c(=O)[nH]c2cc(C(=O)NC3CCCCCC3)ccc2c1=O

Further structures.
VDR inh	smiles
?	O=C(/C=C/c1ccc(Cl)c([N+](=O)[O-])c1)c1cccnc1
-7.7%	O=C(CN1C(=O)NC2(CCCC2)C1=O)N1CCN(S(=O)(=O)c2ccccc2[N+](=O)[O-])CC1
-3.0%	CN1CCN(NC(=O)c2ccc(S(=O)(=O)N3CC4(C)CC3CC(C)(C)C4)cc2)CC1 (centres undefined)
-2.2%	Cc1cc(C(=O)N/N=C2\CCCC(=O)C2)c(C)o1
16.5%	CC(C)C(=O)Nc1ccccc1OCc1cc(=O)n2ccccc2n1
-1.8%&13.1%	CCN1CCN(c2cc3c(cc2F)c(=O)c(S(=O)(=O)c2ccccc2)cn3C)CC1
-17.8%	Cc1cc(C)cc(NC(=O)CN(c2cccc(C)c2C)S(=O)(=O)c2ccccc2)c1
-21.9%	Fc1cccc(NC(=S)Nc2cccnc2)c1
-6.7%	C=CCSC1=N/C(=C\c2ccsc2)C(=O)S1
1.3%	Cc1cc(CNC(=O)COc2ccccc2F)c2ccccc2n1
13.5%	COc1ccccc1C/C(N)=N/O
0.6%	O=C(Cc1ccc(O)cc1)NCCNC(=S)NCc1ccccc1
2.6%	O=C1c2cccc3cccc(c23)C(=O)N1OS(=O)(=O)c1ccc(Br)cc1
2.0%	O=C(CSc1nnc(COc2ccc(Cl)cc2)o1)N1c2ccccc2CCc2ccccc21
-8.4%	Cc1[nH]c2ccccc2c1C(=O)C(=O)N1CCN(C(=O)c2ccco2)CC1

Remaining list, next part.
VDR inh	smiles
-6.8%	CCN1C(=O)c2cccc3c(S(=O)(=O)Nc4ccncc4)ccc1c23
21.7%	O=C(Cc1ccc(Cl)cc1)Nc1ccc(N2CCCC2)cc1
-1.8%	N#C/C(=N\Nc1ccccc1)C(=N)N1CCOCC1
4.4%	Cc1ccc(-c2nc(=S)c3c(n2Cc2ccco2)CCCC3)cc1
0.3%	O=C(CSc1nc2ccc([N+](=O)[O-])cc2[nH]1)NC1CCCCC1
4.7%	NC1=NC2(CCCCC2)n2c(nc3ccccc32)N1
2.3%	COc1ccccc1NC(=O)c1oc2ccccc2c1NC(=O)c1ccco1
11.0%	COc1ccccc1C(=O)Nc1nnc(S(=O)(=O)N2CCOCC2)s1
9.6%	COc1cccc(C2C3=C(N=c4s/c(=C\c5ccc(O)cc5)c(=O)n42)c2ccccc2CC3)c1OC (centres undefined)
7.2%	O=C(CN1CCN(C(=O)C2CCCO2)CC1)Nc1ccc(Cl)cc1 (centres undefined)
-3.0%	Cc1ccc(CCC(=O)Nc2ccc(Cl)cc2)o1
1.4%	COc1ccc(S(=O)(=O)N2CCN(C(=O)c3cccs3)CC2)cc1
14.9%	N#Cc1cccc(Nc2ncnc3c2cnn3-c2cccc(Cl)c2)c1
0.0%	COc1ccccc1OCCCCOc1ccccc1C(C)=O
17.1%	O=C(COc1ccccc1Cc1ccccc1)NCCCN1CCOCC1

Five compounds out of the list, arranged by SMILES length, largest number first.
VDR inh	smiles
9.6%	COc1cccc(C2C3=C(N=c4s/c(=C\c5ccc(O)cc5)c(=O)n42)c2ccccc2CC3)c1OC (centres undefined)
0.3%	O=C(CSc1nc2ccc([N+](=O)[O-])cc2[nH]1)NC1CCCCC1
-6.8%	CCN1C(=O)c2cccc3c(S(=O)(=O)Nc4ccncc4)ccc1c23
11.0%	COc1ccccc1C(=O)Nc1nnc(S(=O)(=O)N2CCOCC2)s1
21.7%	O=C(Cc1ccc(Cl)cc1)Nc1ccc(N2CCCC2)cc1

Some of the entries above, reformatted.
Molecule	VDR inh
N#C/C(=N\Nc1ccccc1)C(=N)N1CCOCC1	-1.8%
Cc1ccc(-c2nc(=S)c3c(n2Cc2ccco2)CCCC3)cc1	4.4%
O=C(CSc1nc2ccc([N+](=O)[O-])cc2[nH]1)NC1CCCCC1	0.3%
NC1=NC2(CCCCC2)n2c(nc3ccccc32)N1	4.7%

Next part
VDR inh	smiles
?	O=C(NC(Cc1ccccc1)C(=O)Oc1ccc2c(C(F)(F)F)cc(=O)oc2c1)OCc1ccccc1 (centres undefined)
10.1%	COc1cc(C(=O)NCCC(=O)NCCN2CCCCCC2)cc(OC)c1OC
9.9%	COc1ccc(C(C(O)C(=O)c2c[nH]c3ccccc23)N2CCN(c3ccc(OC)cc3)CC2)cc1 (centres undefined)
23.2%	CCn1ccnc1CN(C)C(=O)CCc1nnc(CCCc2ccccc2)o1
7.5%	CC(=O)c1cccc(NC(=O)C(C)n2c(=O)cc(C)c3c(C)nn(-c4ccccc4)c32)c1 (centres undefined)
12.1%	Brc1ccc2c(c1)C(c1cccs1)=NNC(c1cccnc1)=N2
-13.2%	CCOC(=O)CSC1=C(C#N)C(c2ccc(F)cc2)C(C(C)=O)=C(C)N1 (centres undefined)
1.8%	CC(=O)N1c2ccccc2C(=O)C1N1CCN(c2ccccc2)CC1 (centres undefined)
-3.7%	Cc1ccc(N(CC#N)C(=O)CS(=O)(=O)c2cccc([N+](=O)[O-])c2)cc1
1.0%	O=C(CSc1ncc2c(n1)-c1cc(Cl)ccc1N(Cc1ccccc1F)S2(=O)=O)Nc1cccc(C(F)(F)F)c1
-16.0%	CCCC(=O)Nc1nc2ccc(NC(=O)c3ccccc3F)cc2s1
-16.9%	CC1CC(=O)C2=C(C1)Nc1nc3ccccc3n1C2c1cccnc1 (centres undefined)
5.0%	Cc1cc(C)n(C(=O)Cc2cn3ccsc3n2)n1
-7.1%	CC(=O)N1c2ccccc2C(=O)C1N(C)c1ccc(C)cc1 (centres undefined)
-17.3%	Cc1nn2c(-c3ccco3)ccnc2c1-c1ccc(Br)cc1

Three of the compounds above, bar-delimited:
canonical_smiles | VDR inh
COc1cc(C(=O)NCCC(=O)NCCN2CCCCCC2)cc(OC)c1OC | 10.1%
COc1ccc(C(C(O)C(=O)c2c[nH]c3ccccc23)N2CCN(c3ccc(OC)cc3)CC2)cc1 (centres undefined) | 9.9%
CCn1ccnc1CN(C)C(=O)CCc1nnc(CCCc2ccccc2)o1 | 23.2%

Continuation:
VDR inh	smiles
9.6%	CN1CCN(Cc2c(O)ccc3cc(-c4ccccn4)c(=O)oc23)CC1
6.0%	Cc1ccc(CSc2ncc(Cl)c(C(=O)NCc3ccccc3)n2)cc1
-0.8%	CCN1C(=O)c2ccccc2S(=O)c2ccc(C(=O)NCCN(CC(C)C)CC(C)C)cc21 (centres undefined)
-10.6%	CC(=O)OCC(=O)[C@@]12OC3(CCCC3)OC1CC1C3CCC4=CC(=O)C=C[C@@]4(C)[C@]3(F)C(O)C[C@]12C (some centres undefined)
0.3%	CSc1nnc(-c2cc3ccccc3cc2O)n1C
5.8%	CCn1c(SCC(=O)OC(C)C)nnc1-c1ccccc1OC
-12.9%	O=C(Nc1ccnn1C1CCN(Cc2c[nH]c3ccccc23)CC1)c1ccccc1
10.4%	CC(=O)Nc1ccc(C2=NN(c3ccccc3)C(c3ccccc3)C2)cc1 (centres undefined)
0.8%	Cc1cccc(OCC(=O)N/N=C/c2ccccc2C(=O)O)c1
-8.7%	CC(C)CN(c1ccccc1)S(=O)(=O)c1nnc(NC(=O)C2CCCCC2)s1
8.9%	CCOc1ccc([N+](=O)[O-])c(N)c1
0.6%	Cc1cc2cc(CNS(=O)(=O)c3ccc4ccccc4c3)ccc2n1C
5.4%	CCOC(=O)N1CCN(CCC(=O)Nc2cc([N+](=O)[O-])ccc2OC)CC1
?	CCCCC(=O)NC(c1ccc(Cl)cc1)c1ccc2cccnc2c1O (centres undefined)
-18.4%	CCC(C)[C@H](NC(=O)C1CC(=O)N(c2ccc(OC)cc2)C1)C(=O)NC1CCCC1 (some centres undefined)

Next compounds.
VDR inh	smiles
-24.9%	COC(=O)N1C(=O)[C@@](c2ccccc2)(C2CCCC2)N1C(=O)OC
2.2%	Cc1cnc(NC(=O)c2ccc(F)c(S(=O)(=O)N3CCOCC3)c2)s1
4.0%	Nc1c(C(=O)c2ccc(Cl)cc2)oc2ccccc12
17.3%	CCS(=O)(=O)N1CCN(C(=O)c2cccs2)CC1
5.3%	CCOc1ccccc1NC(=S)N(Cc1cc2ccc(C)cc2[nH]c1=O)CC1CCCN1CC (centres undefined)
?	CC1CCCN(C(=O)c2cccc(S(=O)(=O)Nc3cc(C(F)(F)F)ccc3Cl)c2)C1 (centres undefined)
-2.1%	O=S(=O)(c1cccc(-c2nnc(SCc3ccc(Cl)cc3)o2)c1)N1CCCCC1
67.6%[activator]	CC(C)Oc1ccc(C(=O)NCC(=O)Nc2ccc3c(c2)CCC3)cc1
18.6%	COc1cccc(-c2csc(NC(C)=O)n2)c1
18.7%	CN(CC(=O)Nc1cccc(S(=O)(=O)N2CCCCC2)c1)Cc1ccc(F)cc1
7.1%	N#Cc1cccc(NC(=O)C2CCN(S(=O)(=O)c3ccc4[nH]c(=O)ccc4c3)CC2)c1
6.6%	O=C(CCc1ccccc1)N1CCN(S(=O)(=O)c2cccs2)CC1
3.0%	O=C(NCCCN1CCN(C2CCCCC2)CC1)Nc1ccccc1C(F)(F)F
-10.7%	COc1ccc(CNC(=O)CSc2nc3ccccc3nc2Cc2ccccc2)cc1
-12.3%	CC1(C)CC(=O)CC2(C1)NCC(c1ccccc1Cl)c1c2[nH]c2ccccc12 (centres undefined)

Continued.
VDR inh	smiles
-19.4%	COC(=O)C1=C(C)N(CCc2ccccc2)C(=O)/C1=C\c1ccco1
-3.9%	CC(C)N(C(=O)[C@H]1C[C@H](CC(=O)NC(C)(C)C)C(=O)N2CCc3c([nH]c4ccc(Cl)cc34)[C@]12C)C(C)C
-8.6%	COc1ccccc1CNC(=O)c1cc(-c2ccccc2)nn1Cc1cc(C)no1
-10.9%	CCCCC1CCC(c2nc(-c3ccccn3)no2)CC1 (centres undefined)
0.0%	CN(C)S(=O)(=O)N1CCC(C(=O)O)(c2ccccc2)CC1
-9.6%	CCOc1ccc(C(=O)C(C)OC(=O)CN2C(=O)NC(C)(C)C2=O)cc1 (centres undefined)
4.0%	CCc1ccc(N(C(=O)c2csnn2)C(C(=O)NC(C)(C)C)c2cccnc2)cc1 (centres undefined)
-2.5%	O=C(NNC(=O)c1ccccc1C(F)(F)F)c1csc(N2CCOCC2)n1
4.7%	COc1ccc(CN2CC(C(=O)NCCCN3CCCCC3)CC2=O)cc1 (centres undefined)
9.2%	COc1ccc(-c2nc(C)c(CCNC(=O)c3ccc(C(F)(F)F)cc3)s2)cc1OC
-20.2%	CCO[C@@H]1OC(C(=O)N2CCN(C)CC2)=C[C@H](C2CCCCC2)[C@H]1CCCO
-20.9%	O=C(c1cccc(Cl)c1)N1CCCC(C(=O)N2CCN(c3ccccc3)CC2)C1 (centres undefined)
17.0%	Cc1cccc(NC(=O)CNC(=O)Cn2cc(C(F)(F)F)cc(Cl)c2=O)c1C
-5.8%	CC(C)CNC(=O)CSc1nc2scc(-c3ccccc3)c2c(=O)[nH]1
-2.7%	Cc1csc(C(=O)O)c1NC(=O)c1cccc([N+](=O)[O-])c1
3.8%	CC(=O)c1cnc(Nc2ccc(C)cc2)s1
